# High-throughput results (PubChem)
# GIV Gai3 FP = inhibitors of GIV GBA-motif binding to rat Galpha-i3; Galpha-i3/FITC-GIV peptide fluorescence polarization, 90 min; stronger effect = lower value; scaled: aluminum fluoride 0%, vehicle 100%; 210,000 tested, 0.42% active; P08753; percent of control (FP), % (concentration not given with the values);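 active means replicate mean at 85% of control or lower, very high polarization wells dropped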;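 further: wells of about 15 µL received 100 nL stock; the first replicate is given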
# Target sequence (P08753 whole entry, looked up): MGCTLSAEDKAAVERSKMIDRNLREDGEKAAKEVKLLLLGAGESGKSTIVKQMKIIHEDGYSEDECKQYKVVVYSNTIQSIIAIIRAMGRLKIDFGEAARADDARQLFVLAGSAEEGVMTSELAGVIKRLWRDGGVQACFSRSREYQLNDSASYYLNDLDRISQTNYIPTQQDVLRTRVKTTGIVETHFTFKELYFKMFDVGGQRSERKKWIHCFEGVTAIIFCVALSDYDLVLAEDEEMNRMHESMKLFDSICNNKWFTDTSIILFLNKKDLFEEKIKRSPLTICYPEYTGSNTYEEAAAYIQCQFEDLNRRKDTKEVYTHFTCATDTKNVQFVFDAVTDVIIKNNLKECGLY
# Sa growth 42C = S. aureus growth inhibition; S. aureus RN4220 growth, OD600, 20 h, 42 °C; stronger effect = lower value; relative growth, % (concentration not given with the values); 170,000 tested, 0.53% active; AID 720641;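 active means growth at 42 °C up to 50% and 20 or more points under that at 30 °C, or under 10% at both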;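 further: 300 nL library stock went into each well; scaled to the means of positive and negative controls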
# HCMV NEC inh = cytomegalovirus nuclear egress complex inhibition; HTRF UL50-UL53 interaction, normalized percent inhibition; inhibition, % (no concentration beside the values); 190,000 tested, 0.15% active; AID 1918969;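 active means both replicates at 50% or more, plus weaker picks with an unusually low signal ratio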;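 further: stock transfer was 100 nL into about 20 µL; 0% = negative control wells and 100% = wells with untagged competitor protein; inactives centre near -12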
# Sa growth 42C second temp = second read-out of Sa growth 42C, no call of its own (marks repeat the call); relative growth, %; measured here: growth at 30 °C;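 optical density after 20 h as mean of two plates; 100% = untreated growth and lower means inhibition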
# * marks the source's active call; other numbers are inactive results; . = no result given; & = joins results of further samples.
SMILES,GIV Gai3 FP,Sa growth 42C,Sa growth 42C second temp,HCMV NEC inh
Cc1cc(=O)nc2c3ccccc3n(C(C)C(=O)N3CCc4ccccc43)n12 (configuration not stated),103.1,101.1,96.3,4.4
CC1Cc2cc(S(=O)(=O)CCC(=O)Nc3ccc(F)cc3Cl)ccc2N1C(=O)C1CC1 (configuration not stated),101.0,117.0,91.2,.
CC(C)(C)OC(=O)N1CCC(c2c(C(=O)NC3CCCCC3)cnn2-c2ccc(F)cc2F)CC1,106.0,95.2,87.9,.
Cc1ccc(C)c(-n2nnnc2SCC(=O)N2CCCCC2C(N)=O)c1 (configuration not stated),.,97.2,84.1,-12.8
O=C(O)CN1C(=O)/C(=C\c2ccc(-c3cccc4c3C(=O)c3ccccc3C4=O)o2)SC1=S,112.7,.,.,-19.0
Cc1ccccc1-n1c2c(c(=O)[nH]c1=S)CN(Cc1ccco1)CN2,100.6,96.2,90.9,-20.3
Cc1nn(C)c2nc(OCC(=O)c3c(C)n(C)c4ccccc34)cc(-c3ccccc3)c12,96.8,.,.,-12.6
CCOC(=O)COc1nc(-c2ccco2)cc(-c2ccco2)c1C#N,110.3,91.4,84.8,-24.9
CCc1ccc(NC(=O)c2cnc3sc(N4CCCC4)nn3c2=O)cc1,98.2,84.9,91.5,.
O=CN/N=C/c1cn(-c2cccs2)nc1-c1ccccc1,.,75.4,78.7,-21.1
CC(=O)N/C(=C/c1ccc(C)c(C)c1)C(=O)O,139.1,104.1,108.5,-2.2
Cc1cc(NC(=O)CN2CCC(O)CC2)nc2c1c(=O)oc1ccccc12,106.4,119.2,83.0,-7.5
O=S(=O)(CCSc1ccccn1)c1nc2ccccc2s1,102.9,96.7,80.4,-54.4
Cc1c(C(=O)OCC(=O)Nc2ccc(C#N)cc2)oc2ccccc12,.,91.2,100.0,-18.3
CC(C)(C)NC(=O)c1cc(-c2ccncc2)n(-c2ccccc2)n1,110.3,.,.,1.5
COc1ccc(N2C(=O)CSC23C(=O)N(CN2CCCC(C)C2)c2ccccc23)cc1 (configuration not stated),101.6,90.7,91.6,-31.8
CC1(C)C(=O)NCCN1C(=O)CCC(=O)O,99.7,112.0,96.1,2.2
CCOc1ccc(NC(=O)N(CCc2ccncc2)C(C)C)cc1,102.6,99.8,90.7,.
COc1ccc(OCC(O)CNS(=O)(=O)c2ccc(C)cc2)cc1 (configuration not stated),100.6,86.8,94.1,-18.6
CC(C)NC(=O)c1ccc(Cn2c(SCC(N)=O)nc3ccccc3c2=O)cc1,97.8,111.4,88.1,.
O=C(NCCCN1CCOCC1)c1ccc(CN2C(=O)CCn3nc(-c4ccc(Cl)cc4)cc32)cc1,100.4,.,.,-1.3
CC(=O)c1cccc(NC(=O)C2CCN(c3nnc(-n4cccc4)s3)CC2)c1,104.6,77.5,80.0,.
COc1cc(NC(=O)c2cc3ccccc3cc2OCC(=O)NC(C)(C)C)c(OC)cc1Cl,.,90.1,101.9,8.6
CC(=O)N1CCN(c2nc(-c3ccccc3)c3cc(Br)ccc3n2)CC1,105.2,.,.,-11.4
O=C(CN1C(=O)CCCc2ccccc21)NCCCN1CCC(N2CCCCC2)CC1,108.7,.,.,-8.9
CCCN(CCC)C(=O)Cn1c(=O)n(-c2ccc(CC)cc2)c(=O)c2ccc(C(=O)NCCc3ccccc3)cc21,103.7,98.8,93.0,-5.8
COc1cccc(CNC(=O)C2CCN(C(=O)c3cnn(-c4ccccc4)c3-n3cccc3)CC2)c1,99.0,90.7,80.9,-14.8
COc1ccc(-c2nc3ccccc3c(C(=O)Nc3ccc(C(C)=O)cc3)c2C)cc1,104.3,.,.,-16.0
O=S(=O)(Cc1ccc(Cl)cc1)c1nc2ccccc2[nH]1,102.9,101.9,81.0,-13.0
O=C(O)C=C1C2CC3CC(C2)CC1C3,94.7,133.3,88.9,.
CNC(=O)Cc1ccc(-n2c(=O)c3ccccc3n(CC(=O)NCCc3ccccc3)c2=O)cc1,107.8,.,.,-12.5
CCOc1nc(NC(=O)NS(=O)(=O)Oc2cccc(Cl)c2)nc(-c2ccccc2)n1,105.9,85.2,98.7,-14.1
COc1cccc(C(=O)NCC(c2ccc3c(c2)OCO3)N2CCOCC2)c1 (configuration not stated),108.6,98.4,100.8,.
CCNc1c(NS(=O)(=O)c2ccc(F)cc2)c(=O)oc2ccccc12,102.4,95.2,89.3,-22.2
CCC(C)NC(=O)C1CCN(S(=O)(=O)c2ccc3c(c2)CCCC(=O)N3)CC1 (configuration not stated),103.1&102.8,87.5,81.9,-24.3&-5.9
CC(C)(C)c1ccc(C(=O)Nc2cc(-c3nc4ccccc4o3)ccc2Cl)cc1,106.1,97.5,85.7,-7.6
Cc1ccc(NC(=S)NC(=O)C23CC4CCC(CC(C4)C2)C3)cc1,99.0,104.5,87.8,.
O=C(NC(=S)Nc1ccncc1)c1ccccc1,106.6,119.2,88.0,-30.5
CCCC(=O)NCCc1csc(-c2ccc(F)cc2)n1,105.4,.,.,-13.0
O=C1CCN(Cc2ccccc2)C(=S)N1,105.1,125.4,99.7,-5.2
CN1C(=O)c2ccc(-c3nc4ccc(Cl)cc4c(=O)o3)cc2C1=O,101.1,94.9,84.4,.
Fc1cccc(Cl)c1CN1CCN(CCCNc2ncnc3scc(-c4ccccc4)c23)CC1,109.9,102.2,78.1,-6.5
COc1ccc(-c2noc(CNC(=O)CC(c3ccccc3)c3ccccc3)n2)cc1,97.5,101.0,83.1,-7.5
O=c1cc(CNc2ccc(F)cc2)nc2nc(NCc3ccccc3)[nH]n12,96.4,.,.,-36.1
CCOC(=O)c1[nH]c(C)c(CCC(=O)N2CCN(c3ccccc3)CC2)c1C,108.3,103.9,81.4,.
COc1cc(Br)ccc1C1C(C(=O)Nc2ccc(C)cc2C)=C(C)Nc2nnnn21 (configuration not stated),107.3,97.0,110.2,9.0
O=C(/C=C/c1ccc2c(c1)OCO2)OCc1ccccc1,.,100.0,91.6,-16.6
COc1nc2c(c(C)nn2-c2ccccc2)c(C)c1CCC(=O)NCC1CCCO1 (configuration not stated),105.4,.,.,-32.3
Nc1c(-c2nc(-c3ccc4c(c3)OCO4)cs2)c2ccccn2c1C(=O)c1ccccc1,100.7,108.5,91.0,4.0
Cc1c(N2C(=O)/C(=C3/C(=O)N(CC(=O)O)c4ccccc43)SC2=S)c(=O)n(-c2ccccc2)n1C,102.4,.,.,-29.4
COCCNC(=O)c1ccc2c(=O)n(Cc3ccccc3)c(SCC(=O)c3ccccc3)nc2c1,101.3,.,.,-10.4
CCCn1c(=O)c(Br)cn(-c2ccccc2C)c1=O,109.0,87.9,85.0,-29.7
O=C(CCC(=O)N1CCOc2ccccc21)NCc1ccco1,103.7,107.1,94.5,.
Cc1c(Sc2ccc(Cl)cc2)c(=O)[nH]c2cc3c(cc12)OCO3,102.8,112.3,99.8,-7.8
COC(=O)c1cc(C(=O)Nc2cc(OC)ccc2OC)c(=O)[nH]c1C,105.1,.,.,11.0
NNc1ncnc2sccc12,.,83.7,89.1,-15.4
O=S(=O)(c1ccccc1Cl)N1CCC2(CC1)Nc1ccc(Cl)cc1-n1cccc12,105.3,.,.,-20.1
CN(C1CCCCC1)S(=O)(=O)c1ccc(-c2ccccn2)s1,101.3,89.0,85.4,-20.5
O=C(CC1(O)C(=O)N(CCc2ccccc2)c2ccc(Br)cc21)c1ccccc1 (configuration not stated),101.2,84.8,47.5,-35.4
Cc1ccccc1CNCc1ccco1,.,110.4,87.9,-0.8

# An excerpt from above in order of SMILES length, highest first.
SMILES,GIV Gai3 FP,Sa growth 42C,Sa growth 42C second temp,HCMV NEC inh
Cc1c(N2C(=O)/C(=C3/C(=O)N(CC(=O)O)c4ccccc43)SC2=S)c(=O)n(-c2ccccc2)n1C,102.4,.,.,-29.4
COCCNC(=O)c1ccc2c(=O)n(Cc3ccccc3)c(SCC(=O)c3ccccc3)nc2c1,101.3,.,.,-10.4
Nc1c(-c2nc(-c3ccc4c(c3)OCO4)cs2)c2ccccn2c1C(=O)c1ccccc1,100.7,108.5,91.0,4.0
Fc1cccc(Cl)c1CN1CCN(CCCNc2ncnc3scc(-c4ccccc4)c23)CC1,109.9,102.2,78.1,-6.5
COc1cc(Br)ccc1C1C(C(=O)Nc2ccc(C)cc2C)=C(C)Nc2nnnn21 (configuration not stated),107.3,97.0,110.2,9.0
O=C(CC1(O)C(=O)N(CCc2ccccc2)c2ccc(Br)cc21)c1ccccc1 (configuration not stated),101.2,84.8,47.5,-35.4
CCOC(=O)c1[nH]c(C)c(CCC(=O)N2CCN(c3ccccc3)CC2)c1C,108.3,103.9,81.4,.
COc1nc2c(c(C)nn2-c2ccccc2)c(C)c1CCC(=O)NCC1CCCO1 (configuration not stated),105.4,.,.,-32.3
COC(=O)c1cc(C(=O)Nc2cc(OC)ccc2OC)c(=O)[nH]c1C,105.1,.,.,11.0
Cc1ccc(NC(=S)NC(=O)C23CC4CCC(CC(C4)C2)C3)cc1,99.0,104.5,87.8,.
CN(C1CCCCC1)S(=O)(=O)c1ccc(-c2ccccn2)s1,101.3,89.0,85.4,-20.5
O=C(CCC(=O)N1CCOc2ccccc21)NCc1ccco1,103.7,107.1,94.5,.
CCCn1c(=O)c(Br)cn(-c2ccccc2C)c1=O,109.0,87.9,85.0,-29.7
CCCC(=O)NCCc1csc(-c2ccc(F)cc2)n1,105.4,.,.,-13.0
O=C(NC(=S)Nc1ccncc1)c1ccccc1,106.6,119.2,88.0,-30.5
O=C1CCN(Cc2ccccc2)C(=S)N1,105.1,125.4,99.7,-5.2
Cc1ccccc1CNCc1ccco1,.,110.4,87.9,-0.8
NNc1ncnc2sccc12,.,83.7,89.1,-15.4

# (list continues)
SMILES,GIV Gai3 FP,Sa growth 42C,Sa growth 42C second temp,HCMV NEC inh
O=C(/C=C/c1ccco1)/C=C/c1ccco1,45.3*,64.6,74.3,.
O=C1CC(N2CCCC2)C(=O)N1c1ccccc1 (configuration not stated),96.4,75.7,59.6,-41.3
COC12CCCC(C(=O)O)(CCC1)C2,.,123.3,90.8,-1.0
O=C(Nc1ccc(F)c(Cl)c1)c1cc(S(=O)(=O)N2CCCc3ccccc32)ccc1F,103.6,99.2,102.8,.
COc1ccc(-c2noc(-c3cn(Cc4ccc(NC(=O)Nc5ccccc5)cc4)cn3)n2)cc1OC,104.9,.,.,-21.9
Cc1ccc(CNC(=O)CN2CCN(Cc3ccc(F)cc3)C2=O)cc1,110.5,106.0,81.4,-14.1
COc1cccc(CNC(=O)C2CCN(c3nnc(-n4c(C)ccc4C)s3)CC2)c1OC,105.6,94.0,91.2,0.6
COc1ccc(S(=O)(=O)c2cn(CC(=O)Nc3cccc(OC)c3)c3nc(C)ccc3c2=O)cc1,112.5,103.7,86.8,-6.9
COc1cccc(Cn2cc(NC(=O)Nc3ccc(F)cc3F)cn2)c1,103.3,108.1,94.4,-17.6
c1ccc2sc(C3CCCN3Cn3nnc4ccccc43)nc2c1 (configuration not stated),.,106.2,86.8,-14.1
Cc1cccc(OCCCCn2nnc3sc4c(c3c2=O)CCC(C)C4)c1 (configuration not stated),99.7,97.4,83.2,-21.7
COc1ccc(N(C(=O)/C=C\C(=O)Nc2ccc(Cl)cc2)C(C(=O)NCc2ccco2)c2ccc(C)cc2)cc1 (configuration not stated),106.0,82.8,105.5,.
CCOC(=O)CNc1nc(Cl)nc(Nc2ccc(C)cc2)n1,99.0,.,.,-15.5
OC(c1ccc(Cl)cc1)C(O)c1nc2ccccc2[nH]1 (configuration not stated),.,92.7,86.2,-20.3
CCc1ccc(C2NC(=O)c3c(sc4c3CCN(C)C4)N2)cc1 (configuration not stated),191.0,73.7,79.8,.
O=C(CN1CCC(NC(=O)NC2CCCCC2)CC1)Nc1cccc(I)c1,97.7,82.7,84.3,13.7
O=S(=O)(NCc1ccncc1)c1ccccc1,.,81.2,82.8,-12.4
